PK Bst: alters activity of Bacillus stearothermophilus pyruvate kinase; 1.2% of 51,000 active; Potency, µM; partly purified Bacillus stearothermophilus pyruvate kinase, luminescence ATP production; ribose 5-phosphate activator present at AC10; AID 361; in the data active means potency below about 11 µM; inconclusive means mostly about 12 µM to 25 µM; inactive means weaker than that;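 the screen sought inhibitors and activators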;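 further: potency means the concentration at half of the fitted maximal effect; scaled between full activation by ribose 5 phosphate and full inhibition by luteolin; about four in five hits inhibit and the cells do not say which; series up to 57 µM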
YjeE inh: displaces an ADP probe from E. coli YjeE (TsaE); P0AF67; purified YjeE, fluorescence polarisation of a bound ADP probe; Potency, µM; 0.05% of 71,000 active; AID 605; active = well fitted falling curve; inconclusive = weaker or top-dose-only fall, or a rising curve; inactive = flat or poorly fitted curve;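 further: top concentration of the series not given in the record; excess ADP was the control for the full effect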
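Fluorescence polarization of a BODIPY Texas Red–ADP probe (2 uM) bound to purified YjeE (10 uM) was read after 15 min room-temperature incubation with compounds. Loss of polarization marks inhibitors; ADP serves as titrated control.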
Active calls of the source: *; i = inactive; u = inconclusive; x = not tested or not shown. Only part of the results is shown; rates above refer to the full screens.

YjeE inh,PK Bst,smiles
i,>57,O=S(=O)(NCCc1ccccn1)c1cccs1
i,x,Cc1ncc(CO)c(CO)c1O
i,>57,Cc1cc(Cl)c(S(=O)(=O)N2CCN(c3ccc(F)cc3)CC2)cc1OCC(N)=O
i,>57,CC(C)[C@H](NC(=O)OC(C)(C)C)c1nnc(SCC(=O)Nc2ccc(Br)cc2)o1
i,x,Nc1ccc([N+](=O)[O-])c(N)c1
x,>11.4,CC(NC(=O)CSc1nc2c(cc1C#N)CN(C)CC2)c1ccccc1 (centres undefined)
i,>57,O=C1c2ccccc2N2C(=O)c3ccccc3C2N1O (centres undefined)
i,x,Cc1cccc(Cn2c(N(C)Cc3ccccc3)nc3c2c(=O)[nH]c(=O)n3C)c1
x,>25.6,CCOC(=O)CSc1nc(C)c(C(C)=O)cc1C#N
i,>57,CCC(C)(C)n1nnnc1C(c1cc2ccc(OC)cc2[nH]c1=O)N1CCc2ccccc21 (centres undefined)
u,x,COc1ccccc1N1CCN(C(=O)C2CCN(S(=O)(=O)c3ccc(F)cc3)CC2)CC1
i,>57,O=C(CN1C(=O)CSc2ccccc21)NC1CCCC1
i,>57,CC1(C)NC(=O)N(CC(O)CN2CCCC2)C1=O (centres undefined)
i,x,Cc1cc(CNC(=O)[C@H](C)[C@H]2C[C@]2(C)[C@H](NC(=O)OCc2ccccc2)c2ccccc2)nn1C
x,>25.6,CCc1ccc(NC(=O)CSC2=C(C#N)C(c3ccco3)C3=C(CCCC3=O)N2)cc1 (centres undefined)

The list continues:
YjeE inh,PK Bst,smiles
i,>57,CCOc1ccccc1C(=O)N(Cc1cccs1)C1CCS(=O)(=O)C1 (centres undefined)
i,>57,COc1ccc(-c2ccc(NCCC3=CCCCC3)nn2)cc1OC
i,x,COC(=O)N1CCC[C@@]2(CCN(C(c3ccccc3)c3ccccc3)C2)C1
i,>57,Cc1c(Cl)ccc2c1NC(=O)[C@]21N[C@@H](CCC(N)=O)[C@H]2C(=O)N(c3ccc(F)cc3)C(=O)[C@H]21
i,x,Cc1ccc(C(=O)N2CCN(C(=O)CN3CCOCC3)C2)cc1
i,>11.4,CCOC(=O)c1snc(C(=O)NC2CCCCC2)c1N
i,x,COC(=O)[C@@]1(Cc2ccc(F)cc2)[C@H]2c3cc(C(=O)N4CCCC4)n(Cc4cc(F)cc5c4OCOC5)c3C[C@H]2CN1C(=O)c1ccccc1
i,>57,CN(C)CCCN1C(=O)C(=O)/C(=C(/O)c2ccc3c(c2)OCO3)C1c1cccnc1 (centres undefined)
i,>57,Cc1cc(SCc2ccccc2)nc(=O)[nH]1
i,>57,O=C(NC1CC1)C1CCCN(C(=O)Nc2ccc(F)cc2)C1 (centres undefined)
i,>57,CCCNC(=O)c1cc(-c2ccc(OC)cc2)on1
i,x,NS(=O)(=O)c1ccc(CCNC(=O)C2CCCN(S(=O)(=O)c3cccnc3)C2)cc1 (centres undefined)
i,>57,Cc1nnc(Sc2nc3c(c(=O)n(C)c(=O)n3C)n2Cc2ccccc2Cl)s1
i,x,CC(=O)N1[C@H](C)C=C[C@]1(Cc1ccccc1)C(=O)NCc1ccc(C)o1
i,>57,O=C(NCCc1ccc(Cl)cc1)C1CCC(=O)N1C1CCCC1 (centres undefined)

Going on with the list.
YjeE inh,PK Bst,smiles
i,>57,O=C(CCNC(=O)Cn1ccc2ccccc2c1=O)NCCN1CCN(c2cccc(Cl)c2)CC1
i,x,CC(C)=C1CCC(C)CC1=O (centres undefined)
i,>57,CCn1c(SCC(=O)NCc2ccccc2)nnc1-c1ccccc1O
i,x,O=C1c2ccccc2C(=O)N1CCCc1nc2ccccc2c(=O)n1Cc1ccco1
i,>57,CC(C)(C)NC(=O)c1ccc(COc2ccccc2Br)o1
i,>11.4,O=S(=O)(c1cccc2nsnc12)N1CCN(c2ncccn2)CC1
i,>57,O=C(Cc1cn2ccsc2n1)Nc1ccccc1Oc1ccccc1
i,x,CN(Cc1cc(Br)cc(Br)c1O)Cc1c(O)ccc2ccccc12
i,>57,CCc1ccccc1NC(=O)C(CC)Sc1nc2cc3c(cc2c(=O)n1Cc1ccco1)OCO3 (centres undefined)
i,x,Cn1cnc2cc(NC(=O)c3ccc(Cl)cc3)ccc21
i,>57,CCC12CCCN3CCC4(C(=C(C(=O)OC)C1)Nc1ccccc14)C32 (centres undefined)
i,x,O=C(NCCc1cccc(Cl)c1)c1cccnc1
i,x,CCOC(=O)c1[nH]c(C)c(C(=O)NC2CCCCC2)c1C
i,>57,COc1ccc(NC(=O)Cn2nc3n(c2=S)CCC3)cc1
i,>57,Cc1[nH]nc2c1C(c1cccc(O)c1)C1=C(CC(C)(C)CC1=O)N2 (centres undefined)

Remaining list, next part
YjeE inh,PK Bst,smiles
i,x,COC(=O)[C@@]1(Cc2ccccc2)[C@H]2c3cc(C(=O)N(C)C)n(CCSCCO)c3C[C@H]2CN1C(=O)c1ccccc1
i,>57,Cc1cnn(C(=S)NCC2CCCO2)c1 (centres undefined)
i,>57,O=C(N1CCCCC1)N1CCCN(C(=O)N2CCCCC2)CC1
i,>57,O=C(CN1CCCN(S(=O)(=O)c2ccc(Br)cc2)CC1)Nc1ccc2c(c1)OCO2
x,>25.6,CCOC(=O)c1cc(C)n(Cc2cccc(OC)c2OC)c1C
i,x,COC(=O)c1sccc1NS(=O)(=O)c1ccc(OC)cc1
i,>57,CCOC(=O)C(CC)n1cnc2c(oc3ccccc32)c1=O (centres undefined)
i,>57,CNC(=O)Cn1nc(C)c2ccccc2c1=O
i,>57,Cc1cccc(NC(=O)c2ccccc2OCC(=O)N2CCOCC2)c1C
i,>57,Cc1ccc(C(=O)Nc2ccncc2)o1
i,>57,CC(C)(C)C(=O)c1no[n+]([O-])c1/C(=N/O)C(C)(C)C
i,>57,Cc1ccc(C)c(NC(=O)c2nnn(Cc3ccccc3C)c2N)c1
i,>57,CC(C)(C)NC(=O)CN(C(=O)CS(=O)CC(=O)Nc1ccc(F)cc1)c1ccc(F)c(Cl)c1 (centres undefined)
i,>57,Cc1ccc(C(=O)c2cn[nH]c2-c2cc(Cl)ccc2O)cc1
i,>57,CCOc1ccc(/C(O)=C2/C(=O)C(=O)N(CCOCCO)C2c2cccnc2)cc1 (centres undefined)

Next records follow.
YjeE inh,PK Bst,smiles
i,>57,CCOC(=O)C1CCN(C(=O)Nc2ccc3nc(C)c(C)nc3c2)CC1
i,>57,O=C(NCCCN1CCOCC1)c1c(O)c2cc(Br)cc(Br)c2[nH]c1=O
i,x,C=CCn1c(-c2cccs2)nc2nc3ccccc3nc21
i,u,Cc1nn2cc(-c3ccc(Cl)cc3)nc2s1
i,>57,CC(=O)N(c1ccc(C(C)C)cc1)C1C=CS(=O)(=O)C1 (centres undefined)
i,>57,Cc1ccc(CS(=O)(=O)CCC(=O)NCCN2CCCCC2C)cc1 (centres undefined)
i,i,CCOC(=O)c1sc(-c2ccccc2)cc1N
i,>57,COCCN(CCOC)S(=O)(=O)c1ccc(OC)cc1
i,x,COc1ccc(-n2c(Cc3cccn3C)nnc2SCC(=O)Nc2ccc3c(c2)OCO3)cc1
i,>57,CC(OC(=O)c1ccco1)C(=O)NCc1cccs1 (centres undefined)
i,>57,N#Cc1c(N)c(C#N)c(-c2ccc(O)cc2)c2c1CCCC2
i,>57,O=c1c2c3c(sc2n2cnnc2n1-c1ccccc1)N(Cc1ccccc1)CCC3
i,>57,COC(=O)c1ccccc1NC(=O)Cn1nc(C(F)(F)F)c2c1CCC2
i,x,CN(C)c1ncc2nc(-c3ccc(F)cc3)c(=O)n(C)c2n1
i,>57,Cc1noc(C)c1CSc1nnc(-c2c[nH]c3ccccc23)n1-c1ccc(Cl)cc1

Additional structures:
YjeE inh,PK Bst,smiles
x,i,OC[C@H]1O[C@@H](n2cnc3c(Nc4ccccc4)ncnc32)[C@H](O)[C@@H]1O
i,>57,CC(OC(=O)c1cc2sccc2n1C)C(=O)NCc1ccco1 (centres undefined)
i,x,CCOC(=O)C1=C(C)Nc2nc(C)nn2C1c1ccc(C)cc1 (centres undefined)
i,x,CCNc1ncc2nc(-c3ccc(OC)cc3)c(=O)n(C)c2n1
i,>57,Cc1cc(C)n2cc(CSc3ncccc3C(=O)O)nc2n1
i,>57,COc1ccc(OC)c(NC(=O)Cn2c(CCC(=O)O)ccc2-c2cccs2)c1
i,>57,CC(=O)Nc1nonc1-c1nc2ccccc2n1CC1CC1
i,x,CCCn1c(=O)c2[nH]c(-c3ccc(OCC(=O)Nc4ccc(C(C)=O)cc4)cc3)nc2n(CCC)c1=O
i,x,CCNC(=O)c1c(N)sc2c1CCCCC2
i,>57,O=C(CCc1nc(-c2ccccc2F)no1)NCCN1CCN(Cc2ccccc2)CC1
i,x,CCCCCCN(C(=O)CCCCCN1C(=O)NC(c2cccc([N+](=O)[O-])c2)C(C(=O)OCc2ccccc2)=C1C)C(C(=O)NCCCC)c1ccc(OCC(=O)OC)c(C(=O)OC)c1 (centres undefined)
i,x,CC(=O)c1c[nH]c2ccc(C)cc2c1=O
i,>57,O=C(Cn1ccccc1=O)c1cccs1
i,>57,CCC(C)(C)n1nnnc1C(C(C)C)N1CCC(C(N)=O)CC1 (centres undefined)
i,>57,O=c1c(Cc2ccccc2)c(O)nc2n1CCS2

4 entries from above, as labelled records:
O=c1c(Cc2ccccc2)c(O)nc2n1CCS2
  YjeE inh: i; PK Bst: >57

CC(=O)c1c[nH]c2ccc(C)cc2c1=O
  YjeE inh: i; PK Bst: x

O=C(Cn1ccccc1=O)c1cccs1
  YjeE inh: i; PK Bst: >57

OC[C@H]1O[C@@H](n2cnc3c(Nc4ccccc4)ncnc32)[C@H](O)[C@@H]1O
  YjeE inh: x; PK Bst: i

(next part)
YjeE inh,PK Bst,smiles
x,>25.6,COC(=O)C(NC(C)=O)(Nc1ccccn1)C(F)(F)F (centres undefined)
i,>57,COC(=O)c1sc(=S)n(-c2cccc(Cl)c2)c1N
x,>25.6,COC(=O)c1ccc(Oc2nc3ccccc3n3c(C)nnc23)cc1
i,>57,CC(C)[C@H](NC(=O)OC(C)(C)C)c1nnc(S(=O)(=O)Cc2c(F)cccc2Cl)o1
i,x,C=C(C)C(=O)OCCCCCC
i,>57,CCOC(=O)CCc1c(C)c2ccc(O)cc2oc1=O
i,>57,CCOC(=O)Cn1c(=O)c2c(nc3n2CCN3c2ccc(C)cc2)n(C)c1=O
x,>11.4,CCCCc1cc(=O)oc2c(CN3CCCC3)c(O)ccc12
i,x,CC1=C(C(=O)OCCOC(C)C)C(c2cccnc2)C2=C(CCCC2=O)N1 (centres undefined)
i,>57,Cc1ccc(C(=O)n2cnnc2N)cc1C
i,>57,Cc1cc(=O)oc(C)c1C(=O)NCC1COc2ccccc2O1 (centres undefined)
i,x,COc1cccc(Cn2nnc(C(=O)Nc3cc(Cl)ccc3OC)c2N)c1
i,x,CCOC(=O)c1[nH]c(C)c(C(=O)NCCN2CCOCC2)c1C
i,x,CC(C)(C)SCCNC(=O)CN(c1ccc(F)cc1)S(C)(=O)=O
i,>57,CC1CCN(C(=O)C2CCN(CCCc3ccccc3)CC2)CC1

Rewritten with each value named: 4 of the compounds above.
CCOC(=O)CCc1c(C)c2ccc(O)cc2oc1=O
  YjeE inh: i; PK Bst: >57
COC(=O)C(NC(C)=O)(Nc1ccccn1)C(F)(F)F (centres undefined)
  YjeE inh: x; PK Bst: >25.6
Cc1cc(=O)oc(C)c1C(=O)NCC1COc2ccccc2O1 (centres undefined)
  YjeE inh: i; PK Bst: >57
CC1CCN(C(=O)C2CCN(CCCc3ccccc3)CC2)CC1
  YjeE inh: i; PK Bst: >57

(next part)
YjeE inh,PK Bst,smiles
i,>57,Cc1ccc(CNC(=O)CCc2nc3ccccc3c(=O)[nH]2)cc1
i,x,COc1ccc(N2CC(O)=C(c3nc(C)cs3)C2=N)cc1
i,>57,COc1cc(S(=O)(=O)NCC2COCCO2)ccc1-n1cnnn1 (centres undefined)
i,>25.6,NCc1ccc(S(N)(=O)=O)cc1
i,>57,CCCCOc1c(Cl)cc(CNC(C)(C)CO)cc1OCC
i,>57,O=C(CCCOc1ccccc1)Nc1nnc(C2CCCO2)s1 (centres undefined)
i,>57,CN(Cc1ccccc1)C(=O)c1cc(-c2ccc(Br)cc2)on1
i,>57,c1ccc(Cn2nnc3c(N4CCN(Cc5ccc6c(c5)OCO6)CC4)ncnc32)cc1
i,>57,Cc1ccc(NS(=O)(=O)c2cccc(C(=O)N3CCOCC3)c2)cc1
i,>11.4,COc1ccc(/C(O)=C(\C#N)c2nc3ccccc3n2C)cc1OC
i,x,O=C(NCCSc1c[nH]c2ccccc12)c1ccc(Br)o1
i,>57,Cc1ccc(OCc2nn3c(-c4n[nH]c5c4CCC5)nnc3s2)cc1
i,x,COc1ccc(CNC(=O)C(C)Cc2ccccc2)cc1O (centres undefined)
i,>57,Cc1ccc(S(=O)(=O)N2CCC(C(=O)N3CCC(C(=O)NCC4CCCO4)CC3)CC2)cc1 (centres undefined)
i,>57,CCc1ccc(CCC(=O)Nc2nc(CC(C)=O)ns2)o1

More results
YjeE inh,PK Bst,smiles
i,>57,CC(=O)Nc1cccc(NC(=O)CCn2c(=O)sc3ccccc32)c1
i,>57,Cc1cccc(-n2c(Cc3cc(=O)[nH]c(=O)[nH]3)nnc2SCC(=O)NCc2ccco2)c1
i,>57,CC(=O)c1ccc(NC(=O)N[C@@H](CC(C)C)C(=O)O)cc1
i,>57,O=C(c1cc2ccccc2oc1=O)N1CCN(c2ccccn2)CC1
x,>25.6,C=CCn1c(=S)[nH]c2nc3c(cc2c1=O)CCCC3
i,x,COc1cc2nc(N3CCN(C(=O)[C@@H]4CCCO4)CC3)nc(N)c2cc1OC
